Compound activity from PubChem.
Marburg entry inh: Marburg virus entry inhibition | AID 540276 | Potency, µM (doses to about 37.8 µM), for the others: at the highest dose activity change, negative = inhibition, usual class: inhibitors | Marburg virus pseudotyped entry inhibition, cell reporter; control for the full effect not named in the record; about a third of the inactives were read at about 46 µM | 300,000 tested, 1.8% active; active = well fitted inhibition curve with a large enough effect; inconclusive = small, poorly fitted or top-dose-only effect, or effect the other way; inactive = flat fitted curve, though single readings scatter; tested in HEK293 cells; about a fifth of its hits are not listed in these tables; also: % is scaled to controls: 0 for no effect and ±100 for the full control effect; luciferase read-out
Cruzain inh Det: blocks cruzain activity in presence of Triton detergent; P25779; purified cruzain, Z-FR-AMC fluorescence, 0.01% Triton; Potency, µM, inactives show max response, negative = inhibition, most hits filed as inhibitors; 200,000 tested, 0.43% active; AID 1478; active = well fitted curve in the direction sought with a large enough effect; inconclusive = small, poorly fitted or top-dose-only effect, or another doubt; inactive = no such curve, though single readings can be large; an effect the other way counts as inactive or inconclusive;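 also: plate controls were neutral wells for no effect and buffer without enzyme for full effect; nearly all actives have a fitted effect of over 40% in size; top concentration of the series not given in the record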
Target sequence (P25779 123-467 limits assumed): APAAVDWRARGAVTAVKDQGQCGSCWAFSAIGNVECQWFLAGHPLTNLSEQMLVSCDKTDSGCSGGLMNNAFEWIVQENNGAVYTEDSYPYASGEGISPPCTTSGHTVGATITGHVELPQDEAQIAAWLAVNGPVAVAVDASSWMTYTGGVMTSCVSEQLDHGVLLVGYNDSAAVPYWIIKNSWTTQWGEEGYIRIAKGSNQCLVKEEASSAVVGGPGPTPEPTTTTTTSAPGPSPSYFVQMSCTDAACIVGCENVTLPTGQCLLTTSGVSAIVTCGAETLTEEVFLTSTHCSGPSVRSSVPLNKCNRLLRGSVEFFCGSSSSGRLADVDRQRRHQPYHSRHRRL
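Detergent-containing arm of a paired screen for aggregation-based inhibition: 0.01% Triton X-100 present. Cruzain at 1.5 nM cleaved 2 uM Z-FR-AMC at pH 5.5 with 5 mM DTT; AMC fluorescence gain over 60 s measured activity.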
NS1 inh: influenza NS1 inhibition; S. cerevisiae slowed by influenza A NS1, growth recovery by OD600; Potency, µM (doses to about 46.1 µM), for inactives: top-dose activity, positive = more growth; 270,000 tested, 0.4% active; also: actives are rising curves; nearly all actives have a fitted effect of over 50% in size
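A cell-based growth assay was used: compounds that relieve NS1-induced slow growth of budding yeast raise OD600. Assay medium was yeast nitrogen base with ammonium sulphate and -URA supplement, pH 6.0, with 2% galactose.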
SARS PLpro yeast: SARS-CoV PLP inhibition in yeast; Potency, µM (top dose mostly 32.9 µM), inactives show top-dose activity, positive = growth rescue; 330,000 tested, 0.19% active; S. cerevisiae expressing SARS-CoV PLpro, growth rescue; control for the full effect not named in the record; AID 485353; also: 0% is about no effect; nearly all actives have a fitted effect of over 55% in size; growth read by luminescence after 48 h
2A StopGo: FMDV 2A StopGo reporter, luciferase signal | human cells with a luciferase reporter of 2A StopGo recoding; control for the full effect not named in the record | Potency, µM (titrated, usually from 57.9 µM), for inactives: at the top dose signal change, negative = less light | 410,000 tested, 1.2% active; active = well fitted falling curve with a large enough effect; inconclusive = small, poorly fitted or top-dose-only effect; inactive = no such curve, though single readings can be large or run the other way; tested in HEK293T cells; also: % is scaled to controls: 0 for no effect and ±100 for the full control effect; nearly all actives have a fitted effect of over 45% in size; luciferase light after 4 h
Cruzain inh noDet: inhibitors of Trypanosoma cruzi cruzain without detergent. AID 1476. Potency, µM, without a hit: max response, negative = inhibition, hits mostly inhibitors. purified cruzain, Z-FR-AMC fluorescence, no detergent. 200,000 tested, 2.3% active. P25779; active = well fitted curve in the direction sought with a large enough effect; inconclusive = small, poorly fitted or top-dose-only effect, or another doubt; inactive = no such curve, though single readings can be large; an effect the other way counts as inactive or inconclusive;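 also: plate controls were enzyme without inhibitor for no effect and buffer without enzyme for full effect; nearly all actives have a fitted effect of over 40% in size; top concentration of the series not given in the record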
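Purified cruzain at 1.5 nM, pre-incubated 15 min with compound at room temperature in 100 mM sodium acetate pH 5.5, 5 mM DTT, 0.00005% Triton X-100. Reaction started with 2 uM Z-FR-AMC; AMC fluorescence increase over 60 s gives rate.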
RE007 growth inh: less growth of the S. pombe RE007 Vpr strain. S. pombe RE007 Vpr strain, BacTiter-Glo ATP luminescence, 24 h; control for the full effect not named in the record. AID 651644. Potency, µM (top dose mostly 92.2 µM), inactives show at the top dose activity change, negative = less growth. 360,000 tested, 0.21% active; active = well fitted falling curve with a large enough effect; inconclusive = small, poorly fitted or top-dose-only effect; inactive = no such curve, though single readings can be large or run the other way;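 also: % is scaled to controls: 0 for no effect and ±100 for the full control effect; nearly all actives have a fitted effect of over 50% in size; the assay follows cell death caused by Vpr and the record does not say whether a fall means rescue or toxicity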
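Fission yeast RE007 carrying one integrated HIV-1 vpr copy, seeded at OD 0.01 in PMG+AL medium with 23 nL pinned compound. Grown 24 h at 30 degrees; viability read by BacTiter-Glo luminescence after 5 min.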
Lassa entry inh: inhibitors of Lassa virus binding or cell entry. Lassa virus pseudotype entry inhibition, cell reporter; control for the full effect not named in the record. Potency, µM (titrated, usually from 37.9 µM), inactives show at the highest dose activity change, negative = inhibition, hits mostly inhibitors. 300,000 tested, 1.2% active; active means well fitted inhibition curve with a large enough effect; inconclusive means small, poorly fitted or top-dose-only effect, or effect the other way; inactive means flat fitted curve, though single readings scatter; tested in HEK293 cells; also: % is scaled to controls: 0 for no effect and ±100 for the full control effect; nearly all actives have a fitted effect of over 50% in size; luciferase read-out
An asterisk follows results filed as active; ? = inconclusive; . = no result given; & = joins results of further samples; [ ] = another dose, or the depositor's remark. Unless noted, calls follow the shape of the dose curve; as a rule, active means well fitted rising curve with a large enough effect; inconclusive means small, poorly fitted or top-dose-only effect; inactive means no such curve, though single readings can be large or run the other way. Potency is read from the fitted curve at half-maximal effect.

SMILES | Marburg entry inh | Cruzain inh Det | NS1 inh | SARS PLpro yeast | 2A StopGo | Cruzain inh noDet | RE007 growth inh | Lassa entry inh
O=C(NCC(c1ccco1)N1CCN(c2ccccc2)CC1)C(=O)NC1CCCC1 (configuration not stated) | 16% | . | . | -2% | 0% | . | -3% | ?
COc1cc(NC(=S)N2CCN(S(=O)(=O)c3ccc(C)cc3)CC2)cc(OC)c1 | ? | . | 9% | 2% | 4% | . | -30% | -14%
CCc1nn(CCCC(=O)NCc2cc(Br)ccc2OC)c(=O)c2cc3occc3n12 | ? | -2.3% | 13% | 5% | -14%&10% | -10% | -4% | -7%[46.1 µM]
Cc1cc(=O)[nH]c(NN)n1 | . | . | -6% | -5% | -16% | . | 5% | .
CCOC(=O)C1=C(O)C(=O)N(Cc2ccccc2)CC1 | -13%[46.1 µM] | . | 0% | -1% | -11% | . | -8% | 24%[46.1 µM]
FC(F)(F)c1cc(Oc2ccc(Cl)cc2)ncc1-c1nnc(-c2ccc(Cl)cc2)o1 | ? | . | 5% | 0% | -14% | . | -1% | -5%
CC(C)(C)C1CCc2c(sc3nnn(CCOc4ccccc4)c(=O)c23)C1 (configuration not stated) | ? | -4.9% | . | . | 18% | -11% | . | 4%[46.1 µM]
CS(=O)(=O)N1CCN(Cc2ccc([N+](=O)[O-])cc2)CC1 | 20%[46.1 µM] | . | -2% | -1% | -30% | . | 21% | -3%[46.1 µM]
CN(C)CCNc1nc2c(c(=O)[nH]c(=O)n2C)n1CC(O)COc1ccc(Cl)cc1Cl (configuration not stated) | -22% | 0.2% | -1% | -27% | -20% | 0% | -10% | 8%
COCCCNC(=O)c1ccc(Cn2c(=O)[nH]c3ccccc3c2=O)cc1 | -27% | 0.0% | -28% | 23% | -18% | 2% | 9% | -26%
c1coc(CNc2nc(N3CCCCC3)nc3ccccc23)c1 | ? | 0.6% | ? | -5% | -6% | 0% | -3% | ?
C=CCn1nnnc1SCC(=O)Nc1ccccc1C(=O)OC | 2% | 1.8% | -9% | 9% | -4% | 1% | -2% | -3%
O=C(NCc1cccs1)C1CCN(S(=O)(=O)c2ccc3c(c2)OCCO3)CC1 | 32% | -2.3% | -7% | 5% | 17% | 2% | 5% | -3%
O=C(c1cc(Br)c(Br)s1)N1CCOCC1 | 3% | . | . | -1% | -18% | . | -4% | 0%[46.1 µM]
Cc1ccc(NC(=O)C2CCCCC2C(=O)O)cc1Cl (configuration not stated) | -13%[46.1 µM] | . | -2% | 1% | -8% | . | -7% | 2%[46.1 µM]
CC(=Nc1ccccc1N)c1c(O)n(C)c(=O)n(C)c1=O | . | . | -20% | -8% | 11% | . | -14% | .
Cc1cccc(NC(=O)Cn2nnc3sc4c(c3c2=O)CC(C)(C)OC4)c1 | 2% | . | -3% | 0% | -18% | . | 2% | ?
C/C(=N\NC(=O)c1ccc2ccccc2c1)c1cccs1 | -16%[46.1 µM] | . | -1% | -2% | 1% | . | -6% | -15%[46.1 µM]
CC1=C(C(N)=O)C(c2ccc(Cl)cc2)NC(=O)N1 (configuration not stated) | 20% | 2.5% | 3% | -3% | -17% | 0% | -16% | 14%
O=C(Nc1cc2c(cc1Cl)-c1ccc([N+](=O)[O-])cc1C2=NO)C(F)(F)F | 23% | . | . | . | -3% | . | ? | 0%
O=C(Oc1ccc(-c2cn3c(n2)SCC3)cc1)c1ccccc1 | . | -6.3% | -4% | -5% | -6% | -27% | -6% | .
NCCCC[C@H]1CNC(=O)C(=O)N1CCC12CC3CC(CC(C3)C1)C2 | . | . | 6% | 0% | 8% | . | -5% | .
COc1ccc(C(=O)CSc2nc3ccccc3n2CC(=O)NC(C)(C)C)cc1 | 2% | -1.5% | 11% | 4% | 8% | 4% | -27% | 13%
CCn1cc(CNC(=O)C2CCC(=O)N(Cc3ccc(Cl)cc3)C2)cn1 (configuration not stated) | . | . | -15% | -3% | -4% | . | -4% | .
COc1ccc(-n2c(SCCN(C)C)nc3ccccc3c2=O)cc1 | -17%[46.1 µM] | . | -2% | 6% | -4% | . | -16% | 14%

New compounds follow
SMILES | Marburg entry inh | Cruzain inh Det | NS1 inh | SARS PLpro yeast | 2A StopGo | Cruzain inh noDet | RE007 growth inh | Lassa entry inh
Cc1cccc(Cn2c(=O)n3nc(-c4ccccc4)nc3c3ccccc32)c1 | -28%[46.1 µM] | -3.7% | . | . | ? | 2% | . | -25%[46.1 µM]
Cn1cc(Cl)c(C(=O)NNC(=S)NC2CCCCC2)n1 | ? | 1.7% | -2% | -18% | 8% | 3% | . | ?
CNC(=S)NNC(=O)c1ccc(=O)n(Cc2ccc(Cl)cc2Cl)c1 | ? | . | -7% | 0% | -21% | . | 23% | -2%[46.1 µM]
Cc1cc(C)n(C(=O)Cn2nc(C)c(Br)c2C)n1 | -23% | . | 1% | 5% | -3% | . | -8% | 12%
Oc1cccc(C(O)CNCc2ccc(OCc3ccc(Cl)cc3Cl)cc2)c1 (configuration not stated) | ? | . | . | 1% | -18% | . | -1% | 9%[46.1 µM]
O=C(O)c1cccnc1SCc1ccc([N+](=O)[O-])cc1 | . | . | 3% | 0% | 4% | . | 13% | .
CN(C(=O)COC(=O)CSc1cc(Cl)ccc1Cl)c1c(N)n(Cc2ccccc2)c(=O)[nH]c1=O | 0% | . | . | -6% | -1% | . | 5% | 5%
COc1ccc(OC)c(C2C3=C(N=C4SCC(=O)N42)c2ccccc2CC3)c1 (configuration not stated) | -28% | -5.0% | ? | 11% | -25% | -30% | 6% | ?
Cc1ccccc1CSc1ccc(-c2ccc3c(c2)OCO3)nn1 | 17% | -6.7% | -3% | 6% | 41%[activator] | -4% | 8% | -22%
Nc1nc(-c2ccccc2)cn1/N=C/c1ccccc1 | ? | . | -8% | 0% | 46%[activator] | . | 4% | -6%[46.1 µM]
Cc1ccccc1-c1noc(CSc2nnc(-c3ccncc3)n2-c2ccc(F)cc2)n1 | . | -5.6% | . | . | -24% | 28% | . | 2%[46.1 µM]
N/C(=N\OS(=O)(=O)c1cccc([N+](=O)[O-])c1)c1ccncc1 | 23% | -1.6% | -19% | 5% | 8% | -4% | -2% | 6%
C/C(CCc1ccccc1)=N\NC(=S)NCCc1ccccc1 | ? | . | 16% | 1% | 12% | . | 2% | ?
CCc1cc(C(=O)NC2CCCc3c2cnn3-c2cccc(C)c2C)n(C)n1 (configuration not stated) | ? | . | -2% | -4% | 28µM* | . | 15% | ?
CCOc1nc(NCCC2=CCCCC2)nc(N2CCOCC2)n1 | -15% | 1.2% | -15% | -1% | . | -3% | 11% | -12%
O=C(O)C1C2C=CC(C2)C1C(=O)OCC1CCCO1 (configuration not stated) | 16% | 3.1% | -15% | 7% | -6% | 7% | -8% | -6%
Cc1cccc(OCC(O)Cn2c(=N)n(CCN3CCCCC3)c3ccccc32)c1 (configuration not stated) | 0.52µM* | -3.8%&-0.2% | -7% | 8% | ? | -4%&16% | 1% | ?
Cc1cccc(C(=O)Nc2nnc(S(=O)(=O)N3CCOCC3)s2)c1 | . | -1.8% | 1% | 25% | 14%&11% | -9% | -2% | -10%[46.1 µM]
CCOC(=O)C1(Cc2ccccc2C)CCCN(C(=O)c2ccnn2C)C1 (configuration not stated) | 8%[46.1 µM] | . | -6% | 0% | 22% | . | -6% | -20%
CCc1ccc(NC(=O)CC2C(=O)N(c3cccc(OC)c3)C(=O)N2Cc2ccc(F)cc2)cc1 (configuration not stated) | . | -8.3% | . | . | -11% | 3% | . | -18%[46.1 µM]
CCOc1ccc(NC(=O)c2cc3cc4ccc(OC)cc4nc3o2)cc1 | ? | ? | 4% | 2% | -8% | -7% | -8% | 13%
CCOCCCn1c(=N)c(C(N)=S)cc2c(=O)n3cccc(C)c3nc21 | -12% | -6.1% | -8% | -3% | -24% | 9% | -9% | -25%
CCOc1ccc(NC(=O)C2CCCN(c3c(CC)c(C)nc4ncnn34)C2)cc1 (configuration not stated) | -21%[46.1 µM] | . | -13% | -3% | ? | . | 8% | .
Cc1ccc(C)c(N2CCN(C(=O)c3cc(C)nc4c3c(C)nn4-c3ccccc3)CC2)c1 | . | -4.6% | . | . | -14% | 8% | . | -18%[46.1 µM]
COc1ccc(CCN(C)C2CCCN(C(=O)Cn3cnnn3)C2)cc1OC (configuration not stated) | 18% | . | 15% | 0% | 19% | . | -11% | 6%

The last four compounds of the part above are carried over, then new ones follow.
SMILES | Marburg entry inh | Cruzain inh Det | NS1 inh | SARS PLpro yeast | 2A StopGo | Cruzain inh noDet | RE007 growth inh | Lassa entry inh
CCOCCCn1c(=N)c(C(N)=S)cc2c(=O)n3cccc(C)c3nc21 | -12% | -6.1% | -8% | -3% | -24% | 9% | -9% | -25%
CCOc1ccc(NC(=O)C2CCCN(c3c(CC)c(C)nc4ncnn34)C2)cc1 (configuration not stated) | -21%[46.1 µM] | . | -13% | -3% | ? | . | 8% | .
Cc1ccc(C)c(N2CCN(C(=O)c3cc(C)nc4c3c(C)nn4-c3ccccc3)CC2)c1 | . | -4.6% | . | . | -14% | 8% | . | -18%[46.1 µM]
COc1ccc(CCN(C)C2CCCN(C(=O)Cn3cnnn3)C2)cc1OC (configuration not stated) | 18% | . | 15% | 0% | 19% | . | -11% | 6%
Cc1ccc(CNS(=O)(=O)c2c(N)n(C)c(=O)n(C)c2=O)cc1 | . | . | 0% | -4% | -23% | . | 15% | .
CCc1nc2sc3c(c2c(=O)n1CCO)CCC3 | 6%[46.1 µM] | . | -6% | -6% | 1% | . | -13% | ?
CC1CCN(C(=O)COC(=O)c2nn(C)c(=O)c3ccccc23)CC1 | 28%[46.1 µM] | . | -9% | -1% | -16% | . | -5% | 23%[46.1 µM]
C=CCSc1nnc(-c2cccnc2)o1 | . | 2.1% | -4% | -1% | 20% | -6% | 5% | .
COc1ccc(Cl)cc1NC(=S)Nc1cccc(C)c1 | ? | . | 3% | -1% | 11% | . | 0% | 18%
Cc1ccc(OCC(=O)N(C)CC(=O)Nc2ccc(N3CCOCC3)cc2)cc1 | 4% | . | . | -1% | -17% | . | 14% | 3%
